TRPV1 PAM – enhances activation of the human vanilloid receptor TRPV1 | 0.02% of 320,000 active | TRPV1-expressing cells, Fluo-8 calcium influx, capsaicin EC20 potentiation; host cell line not named in the record; control for the full effect not named in the record | potentiation, % at 8.33 µM | Q8NER1; active means potentiation above 80%; inconclusive means 30% to 80%; inactive means below 30%; further: 0% is about no effect
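Fluo-8 calcium influx in TRPV1-expressing cells, kinetic read (ex 480/em 520 nm). Compound added and read 3 min for agonist activity, followed by capsaicin at EC20 final and 2 min further read for enhancement.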
D2 potentiator – positive allosteric modulators of human D2 dopamine receptor; DiscoveRx D2 beta-arrestin cells, luminescence, 90 min; 100% = 57 uM dopamine signal; potentiation, % (test concentration not listed); 0.23% of 360,000 active; AID 624464; active = potentiation of 50% or more; inconclusive = 30% to 50%; inactive = 30% or less;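 further: compound concentration not given in the record; tested on top of an EC20 dose of dopamine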
Target sequence (P14416 whole entry, looked up): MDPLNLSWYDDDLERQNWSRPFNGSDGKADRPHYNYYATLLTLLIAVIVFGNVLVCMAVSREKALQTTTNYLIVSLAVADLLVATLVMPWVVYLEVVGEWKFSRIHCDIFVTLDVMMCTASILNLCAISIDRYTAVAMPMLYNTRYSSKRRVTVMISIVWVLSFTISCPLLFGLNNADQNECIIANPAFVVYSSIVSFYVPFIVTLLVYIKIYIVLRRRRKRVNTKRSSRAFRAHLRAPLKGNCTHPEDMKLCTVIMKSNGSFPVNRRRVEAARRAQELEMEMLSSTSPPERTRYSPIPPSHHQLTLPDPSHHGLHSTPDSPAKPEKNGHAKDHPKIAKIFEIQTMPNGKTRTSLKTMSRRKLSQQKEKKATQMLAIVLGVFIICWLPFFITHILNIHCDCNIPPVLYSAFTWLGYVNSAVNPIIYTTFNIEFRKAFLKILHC
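D2 cells co-treated with compound plus 50 nM dopamine (EC20) for 90 min at 37 deg C to detect potentiation. Beta-arrestin recruitment was read as enzyme-fragment luminescence after 1 h at ambient temperature. Full response was set by 57 uM dopamine.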
gsp agonist – agonists of gsp mutant (McCune-Albright syndrome); gsp mutant cells, cAMP HTRF, 30 min; control for the full effect not named in the record; 0.13% of 340,000 active; Potency, µM (doses to about 76.9 µM), without a hit: at the top dose activation (cAMP increase), actives largely listed as activators; active = well fitted activation curve with a large enough effect; inconclusive = small, poorly fitted or top-dose-only effect, or another doubt; inactive = no such curve, though single readings can be large or run the other way; cell line not stated here;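 further: phosphodiesterase inhibitor Ro 20-1724 added with compounds to block cAMP breakdown; potency means the concentration at half of the fitted maximal effect; nearly all actives have a fitted effect of over 60% in size; about a fifth of the inactives were tested at one dose only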
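Cells in DMEM/10% FBS with G418 were pretreated with compounds in DMSO plus […] (300 uM stock) for 30 min at 37C. cAMP was measured by HTRF (cAMP-d2 plus anti-cAMP antibody-K) after 30 min at room temperature.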
ClpP mod – qHTS Assay for Activators of ClpP. ATP-dependent Clp protease proteolytic subunit (Bacillus subtilis (strain 168)), P80244. purified B. subtilis ClpP, FRET peptide cleavage, 20 min. Potency, µM (top dose mostly 57.5 µM), for the others: at the top dose activity change, negative = active. 1.9% of 340,000 active; active = well fitted falling curve with a large enough effect; inconclusive = small, poorly fitted or top-dose-only effect; inactive = no such curve, though single readings can be large or run the other way; further: potency means the concentration at half of the fitted maximal effect; the source files actives as falling curves though it sought activators and does not explain the sign; nearly all actives have a fitted effect of over 65% in size; many hits overshoot -100%
Target sequence (P80244 whole entry, looked up): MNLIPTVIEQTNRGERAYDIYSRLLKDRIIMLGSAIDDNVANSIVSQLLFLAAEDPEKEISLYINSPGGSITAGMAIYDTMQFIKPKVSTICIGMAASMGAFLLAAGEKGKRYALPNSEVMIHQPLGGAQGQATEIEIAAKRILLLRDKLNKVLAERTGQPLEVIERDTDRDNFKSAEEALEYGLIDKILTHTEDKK
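Purified B. subtilis ClpP, 10 microg/mL final in Tris/HCl pH8 with KCl, BSA, glycerol and Tween-20, cleaved an Abz/nitrotyrosine-quenched decapeptide. Fluorescence (ex 320, em 430) was read at 0 and 20 min at room temperature. Delta was normalized to 5.8 microM ADEP and DMSO/no-enzyme controls.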
gsp antagonist – antagonizes gsp, the McCune-Albright syndrome mutation; gsp-mutant cells, cAMP HTRF, 30 min; control for the full effect not named in the record; Potency, µM (highest dose often 76.9 µM), without a hit: at the top dose activity change, negative = inhibition, hits mostly inhibitors; 0.4% of 340,000 active; AID 624288; active = falling curve of any shape with a large fitted effect; inconclusive = falling curve, mostly with a smaller effect; inactive = flat or rising curve; cell line not stated here;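 further: intracellular cAMP measured with PDE inhibitor Ro 20-1724 present during compound exposure; potency means the concentration at half of the fitted maximal effect; on the % scale 0 is the no-effect control and ±100 the full control effect; nearly all actives have a fitted effect of over 65% in size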
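HTRF cAMP read-out (cAMP-d2 plus anti-cAMP antibody-K in lysis buffer, 30 min RT). Before lysis, cells are exposed to compounds with […] for 30 min at 37C in DPBS containing Ca/Mg, BSA and Tween 20.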
Menin-MLL FL inh – inhibitors of human menin-MLL interaction, wild-type MLL peptide; Fluorescence polarization, fluorescein-MLL peptide displacement from menin; FP activity change, % at 61.4 µM; 290,000 tested, under 10 active; inconclusive = falling polarisation curve, or a change in total fluorescence; inactive = total fluorescence flat and polarisation flat or rising; no compound was filed as active; the % refers to the polarisation; negative = inhibition;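 further: % of control where 0% means no effect; inhibitors lower the polarisation; unlabelled MLL peptide was the positive control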
Sfp PPTase inh – blocks B. subtilis Sfp PPTase activity; Q9F4F7; Biochemical Sfp PPTase activity, qHTS; Potency, µM, for the others: max response, negative = inhibition, most hits filed as inhibitors; 3.5% of 310,000 active; AID 1490; active means well fitted inhibition curve with a large enough effect; inconclusive means small, poorly fitted or top-dose-only effect, or another doubt; inactive means no such curve, though single readings can be large or run the other way;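 further: the enzyme is Sfp with the accession as filed and its product quenches rhodamine fluorescence; potency means the concentration at half of the fitted maximal effect; 0% = enzyme reaction without inhibitor and -100% = no enzyme wells; top concentration of the series not given in the record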
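With Hepes-Na pH 7.6 buffer containing 10 mM MgCl2, Sfp (15 nM) modified BHQ-2-YbbR (12.5 uM) using rhodamine-CoA (5 uM). Two reads 30 minutes apart at 525/598 nm yielded each well's rate.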
Numbers without * were called inactive; ? = inconclusive; nt = no result given; & = joins results of further samples; [ ] = another dose, or the depositor's remark. This is a random part of the collection, and some 5.1% of all compounds hit somewhere here.

molecule,TRPV1 PAM,D2 potentiator,gsp agonist,ClpP mod,gsp antagonist,Menin-MLL FL inh,Sfp PPTase inh
COc1ccc(C(C)(C)C)cc1NC(=O)CCNC(=O)c1ccco1,-6,-6,33%,nt,0%,-1.1,8%
CCC1(CC)NC(=O)N(CC(=O)OCc2nc3cc(C(=O)OC)ccc3c(=O)[nH]2)C1=O,-5,-22,15%,28µM*,-3%,nt,nt
COc1ccc2c(c1OC)C(=O)O[C@@H]2[C@H]1c2c(cc3c(c2OC)OCO3)CCN1C,4,nt,nt,nt,nt,?,3%&3%&-4%
CN(C)c1ccc(NC(=S)NC23CC4CC(CC(C4)C2)C3)cc1,?,5,?,nt,2%,0.3,14%
O=C1COc2ccc(S(=O)(=O)NCc3ccccc3)cc2N1,-9,0,-74%[inhibitor],nt,11%,-1.2,12%
Cc1cc2occ(CC(=O)N(C)CC(=O)Nc3ccccc3C(F)(F)F)c2cc1C,22,-1,6%,-2.0%,-9%,nt,nt
Cc1onc(-c2c(F)cccc2Cl)c1C(=O)NCc1cccs1,0,-5,-65%[inhibitor],-0.3%,4%,8.5,8%
CC(=O)Oc1ccccc1C(=O)NC(C)CCc1ccccc1 (stereo unspecified),1,-13,3%[15.4 µM],-13%,-24%,3.3,1%
CCOc1cccc(CNCc2cccnc2)c1OCc1ccccc1,-10,-12,2%[15.4 µM],nt,6%,-3.8,4%
O=C1CCCC(O)=C1N=Nc1ccc(Cl)c(Cl)c1,-21,-12,-4%,nt,2%,0.3,11%
O=C(CC1C(=O)NCCN1Cc1cccc(F)c1)NCCCCCN1CCOCC1 (stereo unspecified),-4,0,-36%[inhibitor],-8.8%,14%,nt,3%
Cc1ccc(S(=O)(=O)N2CC(=O)Nc3ccccc32)c(C)c1NS(C)(=O)=O,13,3,0%,nt,5%,-0.8,24%
COc1ccc(NC(=O)c2ccccc2N(Cc2ccccc2)S(C)(=O)=O)cc1OC,7,-2,8%[15.4 µM],nt,-5%,3.8,-25%
CC(C)(C)n1nnnc1C(c1cccs1)N1CCN(Cc2ccc3c(c2)OCO3)CC1 (stereo unspecified),-16,-6,3%,-1.0%,9%,1.6,-12%
O=C(/C=C/c1ccccc1)Nc1cccc(C(=O)N2CCCC2)c1,nt,18,nt,0.8%,?,nt,nt
CN(C)c1ccc(Nc2nc(-c3cccnc3)cs2)cc1,7,?,3%,1.1%,-9%,-0.5,-27%
CCCCCC(=O)Nc1c(-c2ccc(OC)cc2)c(=O)c2ccccc2n1C,-1,-15,?,25µM*,3%,1.4,11%
CSc1ccc(S(=O)(=O)N(C)Cc2ccccc2)cc1,1,-10,-24%,nt,35µM*,-0.6,0%
c1cn(CC2(Cn3ccnc3)COC2)cn1,-13,5,4%,-1.9%,9%,5.2,7%
CCN(CC)C(=O)Cn1cc(C(=O)C(=O)NCc2cccs2)c2ccccc21,-7,-25,3%[15.4 µM],0.7%,6%,-9.6,2%
CC1=CC(C)(C)NC(=S)N1c1ccc(Cl)cc1,nt,-5,?,nt,3%,nt,nt
O=[N+]([O-])c1cc(-c2nc(-c3ccncc3)no2)cc([N+](=O)[O-])c1,-17,95*,14%[15.4 µM],1.0%,6%,nt,9%
O=C(O)c1ccc(CSc2nnc(-c3ccco3)o2)cc1,-9,-2,18%,0.4%,-10%,-3.6,7%
CCOc1ccc(/C=N/NC(=O)c2nnn(-c3nonc3N)c2-c2cccs2)cc1,-7,-3,?,132%,?,1.8,-9%
Cc1ccc2nc(Nc3ccccc3)c(/C=N/O)c(=O)n2c1,4,-4,-1%,-2.2%,4%,0.8,-3%
COc1cccc(OC)c1C(=O)NNC(=O)c1cccnc1,nt,-2,1%[15.4 µM],-1.7%,1%,5.0,8%
Cc1nc2ccc(C(=O)N3CCSCC3)cc2s1,-4,16,-22%,0.5%,2%,4.1,3%
C=C1CCN([C@@H](CC(C)C)C(=O)NCc2ccc(Cl)c(Cl)c2)S(=O)(=O)c2ccccc21,nt,-9,16%,-2.1%,-12%,nt,nt
CC(C)c1ccc2c(c1)c(SC(C)(C)C)c(CC(C)(C)C(=O)O)n2Cc1ccc(Cl)cc1,?,-23,nt,0.8%,?,2.7&-5.1&-3.2&4.7,-21%&17%&1%
Cc1c(NC(=O)NCc2ccccc2)c(=O)n(-c2ccccc2)n1C,-6,-10,18%,1.7%,14%,4.3,9%
Cc1cc(Cl)ccc1OCC(=O)N1CC(C)CC(C)C1 (stereo unspecified),-10,-5,-61%[inhibitor],0.0%,-12%,4.5,6%
O=C(NC(=S)NC1CCS(=O)(=O)C1)c1cccs1 (stereo unspecified),11,-1,-32%[inhibitor],2.8%,10%,-0.8,5%
CSc1ccccc1OCc1cc(C(=O)N2CCN(c3ccccc3)CC2C)no1 (stereo unspecified),-1,-20,-24%,0.7%,1%,4.6,-1%
COc1ccc(CCC(=O)NC(C)c2ccccc2)cc1OC (stereo unspecified),-13,-1,-1%,1.3%,8%,4.1,6%
O=C(COc1ccc(Cl)cc1Cl)Nc1ccc(CN2CCCCC2)cc1,-4,-6,20%[15.4 µM],nt,7%,1.7,-4%
Cc1noc(C)c1S(=O)(=O)N1CCCC(C(=O)N2CCc3ccccc3C2)C1 (stereo unspecified),?,1,4%,-1.0%,-1%,-1.8,-9%
C/C(=N\NC(=O)c1ccc(N(C)C)cc1)c1ccc(C)cc1C,-5,-5,2%[15.4 µM],-0.1%,9%,-0.7,-5%
CCC/C=C1/CCCOC(C(=O)NCc2ccc(C)o2)(C(F)(F)F)C1 (stereo unspecified),nt,-7,10%,-2.2%,-5%,6.7,56µM*
CN(Cc1ccccc1)C1CCN(Cc2ccccc2[N+](=O)[O-])CC1,-4,-18,-7%,nt,7%,3.3,79µM*
COc1cc(OC)c(-c2c3cc(O)c(=O)cc-3oc3cc(O)c(O)cc23)cc1OC,-13,-39&-16,16%,-4.9%,7%,?,16µM*
COC(OC)c1ccc(C#N)c(SCc2ccccc2)n1,nt,-13,-13%,-0.5%,-7%,4.2,-6%
O=C(c1ccc(-c2nc3ccccc3s2)s1)N1CCOCC1,-26,6,13%,nt,-1%,-0.3,-6%
COc1ccc(CN2CCNC(=O)C2CC(=O)NCc2csc(C(C)C)n2)c(OC)c1 (stereo unspecified),8,-1,16%,nt,9%,1.1,-14%
CCOC(=O)C1[C@H]2C(=O)N(CCCOC)C[C@]23C=C[C@H]1O3 (stereo partly specified),28,0,20%,0.0%,0%,2.9,12%
O=C(Nc1ccc(F)cc1)c1cccnc1Oc1ccccc1,-21,-5,19%[15.4 µM],-2.9%,-20%,-2.4,16%
COc1cccc(C(C)NC(=O)c2c(F)cccc2Cl)c1 (stereo unspecified),-1,11,10%,?,4%,0.1,5%
O=C1CCN(C(=O)CSc2ccc(Cl)cc2)N1,6,-3,-1%[15.4 µM],nt,1%,3.6,?
C=C(Cl)COC(=O)C1C2C=CC(C2)C1C(=O)O (stereo unspecified),10,6,?,-0.9%,-2%,5.8,-7%
Cc1ccc(C(=O)OCC(=O)NC2CCCC2)cc1C,-14,-3,10%[15.4 µM],-1.4%,4%,-1.7,0%
Clc1ccc(OCCCCSc2ncccn2)cc1,-11,-1,-1%,0.3%,-33%,2.6,-27%
CC(C)(C)c1ccc(C(=O)Nc2cccc(S(=O)(=O)NC3=NCCC3)c2)cc1,-1,-2,-38%[inhibitor],-0.3%,6%,nt,nt
Cc1ccc(NS(=O)(=O)c2cc(C(=O)NCc3ccccn3)ccc2Cl)cc1,25,-4,2%,-1.0%,-3%,-0.4,2%
Fc1ccc(Nc2cccc3nccnc23)cc1,-19,-7,1%,-1.0%,9%,5.8,5%
CC(=O)N/N=C\c1cccc(OC/C=C/c2ccccc2)c1,-6,-6,-1%,-0.3%,7%,nt,1%
CCc1cccc(C)c1NC(=O)CSc1nnc(Cc2csc(C)n2)o1,8,-31,-13%[15.4 µM],-3.6%,4%,nt,nt
Cc1nnc2c(NC(C)C)nc3ccccc3n12,-3,-10,?,-6.2%,20%,4.5,26%
COc1ccc(OCc2nc3ccc(S(=O)(=O)Nc4ccccc4Cl)cc3[nH]2)cc1,9,22,22%,-25%,25%,0.1,5%
CCc1ccc(S(=O)(=O)Nc2nnc(N)s2)cc1,26,-3,-75%[inhibitor],-1.9%,7%,0.9,4%
O=C(CSCC(=O)Nc1ccc2ccccc2c1)NCc1ccccc1,17,11,3%,-0.8%,-27%,3.7,11%
COc1ccc(Oc2nc(Oc3ccc(OC)cc3)nc(Oc3ccc(OC)cc3)n2)cc1,9,4,-3%,-0.6%,7%,2.5,-5%

The list goes on.
molecule,TRPV1 PAM,D2 potentiator,gsp agonist,ClpP mod,gsp antagonist,Menin-MLL FL inh,Sfp PPTase inh
COc1ccc(OC)c(NC(=O)c2nnn(Cc3ccc(Br)cc3F)c2N)c1,?,-1,-33%[inhibitor],58%,-12%,-1.3,-20%
COc1ccc(CCC(=O)NC2CCCCC2)cc1,-12,3,9%,1.3%,3%,nt,5%
Cc1nc2ccccc2c(=O)n1NC(=O)C1CC1,-7,-17,12%[15.4 µM],nt,nt,-2.8,12%
COc1ccc(-n2nc(C(=O)NCc3ccco3)c3c4ccccc4n(C)c3c2=O)cc1Cl,-11,5,5%,?,3%,6.2,8%
COC(=O)[C@]1(Cc2ccccc2)N[C@H](CN(C)C(=O)c2ccc(F)cc2)[C@@H]2C(=O)N(C)C(=O)[C@@H]21,nt,-7,nt,0.0%,-8%,nt,nt
CCc1cccc(CC)c1NC(=S)NCCc1c(C)[nH]c2ccccc12,12,-5,-3%,-4.5%,-4%,0.9,14%
Cc1cc(-c2csc(NC(=O)c3cccc(S(=O)(=O)N(C)C)c3)n2)c(C)n1-c1ccccc1,3,2,-1%,14µM*,2%,18,-3%
COc1cc(C(=O)Nc2ccccc2N2CCCCC2)cc(OC)c1OC,-18,-2,16%[15.4 µM],-1.2%,-17%,-2.0,-16%

Bioassay records from PubChem BioAssay.
